Compound activity: PubChem, Southern Research Institute
Mtb H37Rv: Confirmatory growth inhibition assay against Mycobacterium tuberculosis H37Rv, potency (AID 1949) | most inactive calls were filed without a number and no value below 0 was filed | inhibition, % at 10 µg/mL; hits with a dose series show IC50 in µg/mL | 100,000 tested, 1.6% active;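 active means confirmed in a dose series; inconclusive means about 50% or more but not retested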;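 further: bacteria grown 7 days with compound before Alamar blue readout; 0% = untreated bacteria and 100% = reference antibiotic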
* marks the source's active call; other numbers are inactive results; i = inactive; ? = inconclusive.

cpd	molecule	Mtb H37Rv
1	COc1ccc(Nc2cc(-n3cccn3)nc(-c3ccccc3)n2)cc1	i
2	O=C(CCC(=O)OCC(=O)c1ccccc1)Nc1nc(-c2ccccc2)cs1	i
3	C=CCNC(=O)C1CC(=O)N(c2ccc(OCC(=O)Nc3ccccc3C)cc2)C1 (stereo not given)	i
4	COc1ccc(-c2[nH]nc3c2C2(C(=O)Nc4ccc(F)cc42)C(C#N)=C(N)O3)cc1 (stereo not given)	i
5	O=C(Nc1ccc(N2CCN(C(=O)c3ccc(Cl)cc3)CC2)cc1)c1ccc2c(c1)OCCO2	i
6	Cc1cc(C)cc(OC(=O)N2CCOCC2)c1	0%
7	CCC(=O)c1ccccc1OCCSc1nc(C)cc(=O)[nH]1	i
8	O=C(O)C1CCN(c2nc(C(F)(F)F)nc3ccccc23)CC1	2%
9	CCN1C(=O)Cc2cc(S(=O)(=O)N3CCOCC3)ccc21	i
10	CCC(=O)N1CCN(c2ccc(NC(=O)c3cccs3)cc2)CC1	i
11	Cn1c(CC(=O)Nc2ccccc2)nnc1SCC(=O)Nc1ccc(I)cc1	i
12	Cc1ccc(NC(=O)COc2ccc(/C=C(/C#N)c3nc4ccccc4[nH]3)cc2)cc1C	i
13	CC(NC(=O)c1ccc(N2CCOCC2)c([N+](=O)[O-])c1)C12CC3CC(CC(C3)C1)C2 (stereo not given)	4%
14	COc1ccccc1-c1cc(C(F)F)n2ncc(C(=O)N3CCN(c4ccc(F)cc4)CC3)c2n1	11%
15	Cc1ccc(C)c(NC(=O)c2cc3c(ccc4ccccc43)oc2=O)c1	i
16	COCCNC(=S)NNC(=O)COc1cccc(C(F)(F)F)c1	2%
17	O=C(Cc1cccs1)Nc1ccc2c(c1)CCC2	i
18	Cc1ccccc1NC(=O)C1CC(=O)OC1(C)C (stereo not given)	1%
19	CC1=C(C(=O)Nc2cccc(C)c2)C(c2ccccc2OC2CCCC2)NC(=S)N1 (stereo not given)	i
20	CCOC(=O)C(C)Sc1nc2ccccc2c(=O)n1CC1CCCCC1 (stereo not given)	1%
21	COC1=C2C(N)=Nc3oc(C(C)(C)C)nc3C2c2ccc(OC)cc2N1 (stereo not given)	i
22	COC(=O)c1cn(C(=O)c2cnn3c(C(F)F)cc(-c4ccccc4)nc23)c2ccccc12	5%
23	FC(F)(F)c1ccccc1NC(=S)Nc1ccc(Cl)cn1	1%
24	Fc1ccc(NC(=S)NC2CCCCCC2)cc1	i
25	O=C1CC(N2CCN(c3ccc(F)cc3)CC2)C(=O)N1c1ccc(Oc2ccccc2)cc1 (stereo not given)	i
26	CCc1c(C)nc2c(OC)cccc2c1SCC(=O)O	0%
27	O=C(O)c1cccc2c1NC(c1ccccc1F)C1CC=CC21 (stereo not given)	i
28	CCc1c(C)c2ccc(OCC(=O)Nc3ccccc3I)cc2oc1=O	i
29	CCOc1ccccc1C(=S)NCc1ccccc1	1%
30	Cc1ccc(NC(=O)CSC2=NC(=O)CS2)cc1	i
31	CS(=O)(=O)N1N=C(c2ccccc2)CC1c1ccco1 (stereo not given)	i
32	Cc1cccc(NC(=O)CC2OCCN(Cc3ccccc3)C2=O)c1 (stereo not given)	i
33	COc1ccccc1OCc1nc(-c2ccc(C)cc2)no1	16%
34	O=C1c2cccc3c(Br)ccc(c23)C(=O)N1c1cc(Cl)ccc1O	3%
35	COc1ccc(NC(=O)NC2CCN(Cc3ccccc3)CC2)cc1OC	i
36	C=CCNC(=O)Cc1coc2cc(C)cc(C)c12	i

Overlap with the part before: 4 entries, followed by the next part.
cpd	molecule	Mtb H37Rv
33	COc1ccccc1OCc1nc(-c2ccc(C)cc2)no1	16%
34	O=C1c2cccc3c(Br)ccc(c23)C(=O)N1c1cc(Cl)ccc1O	3%
35	COc1ccc(NC(=O)NC2CCN(Cc3ccccc3)CC2)cc1OC	i
36	C=CCNC(=O)Cc1coc2cc(C)cc(C)c12	i
37	O=C(CSc1n[nH]c(-c2ccc(Cl)cc2)n1)NCCc1ccccc1	i
38	c1ccc(-c2nc(-n3nc4ccccc4n3)nc3ccccc23)cc1	i
39	C=CCc1cc(C=O)cc(OCC)c1O	i
40	C=CCn1c(COc2ccc3ccccc3c2C)nnc1SCC(=O)NC1CCCCC1	i
41	COc1ccc(Br)cc1S(=O)(=O)NCc1cccnc1	i
42	C=CCn1c(SCCC(=O)Nc2ccc(C)cc2)nc2scc(-c3ccc(C)o3)c2c1=O	i
43	Cc1ccc(C)c(OCC(O)CNC2CCCC2)c1 (stereo not given)	1%
44	Cn1c(=O)c2cn3c4ccccc4nc(-c4cccnc4)c3c2n(C)c1=O	i
45	O=C(Nc1ccccc1)Nc1ccc2c(c1)OCCO2	i
46	C=CCn1c(SCC(=O)Nc2ccc(Cl)c(Cl)c2)nc2ccccc2c1=O	i
47	CN(C)c1ccc(CN(C(=O)c2ccccc2)C2CC(C)(C)NC(C)(C)C2)cc1	i
48	CCN(CC)C(=O)CN(c1ccccc1)S(=O)(=O)c1cc(Br)ccc1OC	i
49	COCc1cc(C)nc(SCC(=O)Nc2cc(C(F)(F)F)ccc2Cl)c1C#N	i
50	Cc1ccc(-c2n[nH]c(=O)c3ccccc23)c(C)c1	i
51	COc1ccccc1OCC(=O)Nc1ccc(C)cc1[N+](=O)[O-]	i
52	O=C(O)COc1ccc(/C=C/[N+](=O)[O-])cc1Cl	i
53	O=S(=O)(Nc1cccnc1)c1ccc(Cl)c(C(F)(F)F)c1	i
54	COC(=O)c1cn(CC(=O)NC2CCCCCC2)c2ccccc12	i
55	CC(C)NC(=O)CSCc1cccc(Br)c1	i
56	CCOC(=O)CNC1CC(C)(C)NC(C)(C)C1	1%
57	COc1ccc2nc(NC(=O)c3ccc(NC(=O)C(C)C)cc3)sc2c1	i
58	COc1ccc(C(=O)NNC(=O)c2ccc(NC(=O)C(C)C)cc2)cc1I	i
59	CCc1cccc(CC)c1NC(=O)CN(c1cc(C)ccc1OC)S(=O)(=O)c1ccccc1	i
60	Cc1nn(C(C)(C)C)c(OC(=O)c2cccs2)c1S(=O)(=O)c1ccccc1	3%
61	O=C(c1ccccc1)c1ccccc1NC(=S)Nc1ccc([N+](=O)[O-])cc1	44%
62	COc1ccc(OC)c(-n2c(-c3cc(-c4ccc(F)cc4)n[nH]3)n[nH]c2=S)c1	6%
63	CN(CC(=O)Nc1ccc(C(F)(F)F)cc1)S(=O)(=O)c1cc(Cl)ccc1Cl	6%
64	COc1nc(N)nc(NC23CC4CC(CC(C4)C2)C3)n1	i
65	Cc1onc(-c2ccccc2)c1C(=O)Nc1ccc2c(c1)CCC2	i
66	COc1ccc(C(=O)N2CCN(c3ccc(C)cc3C)CC2)cc1OC	4%
67	COc1cc(C(=S)N2CCN(c3cccc(Cl)c3)CC2)ccc1O	i
68	O=C(CSCCO)Nc1nc(-c2ccccc2)cs1	i
69	Cc1ccc(C)c(S(=O)(=O)NCc2ccncc2)c1	i
70	Cc1cc(OCCCN2CCCCCC2)ccc1[N+](=O)[O-]	i
71	Clc1cccc(COc2ccc(-c3cnc4ccccc4n3)cc2)c1	i
72	C=C1c2ccccc2NC(=O)N1c1ccccc1	i
73	CCCCOc1ccc(S(=O)(=O)Nc2cccc(C)c2)cc1	2%
74	Cc1cc(C)cc(NC(=O)CN(C)S(=O)(=O)c2cc(Cl)ccc2Cl)c1	i
75	CCOc1ccc(C2C(C(=O)c3cc4cccc(OC)c4o3)=C(O)C(=O)N2Cc2ccco2)cc1OC (stereo not given)	i
76	CCC(C(=O)Nc1ccccc1C(=O)O)c1ccccc1 (stereo not given)	9%
77	COc1cc(NC(=O)c2c(OC)cccc2OC)c(OC)cc1Cl	i
78	Cc1cc(C)c(C(N)=O)c(SCC(=O)c2ccc(Cl)cc2)n1	?
79	Cc1cc(Cl)ccc1OC(C)C(=O)Nc1sc2c(c1C(N)=O)CCCCC2 (stereo not given)	i
80	COc1ccc(S(=O)(=O)N2CCN(c3ccc(F)cc3)CC2)c(C)c1	1%
81	Fc1ccccc1NC(=S)Nc1ccc(Cl)cc1Cl	i
82	CC(C)Oc1ccc(NC(=O)Nc2ccc(Cl)cc2)cc1	3%
83	CC1=C(C(=O)N2CCOCC2)C(c2cccc(Br)c2)NC(=O)N1 (stereo not given)	i
84	CN(c1cccc(NC(=O)COc2ccc(Cl)cc2)c1)S(C)(=O)=O	26%
85	Cc1cc(C(=O)Nc2nc3ccc(S(C)(=O)=O)cc3s2)cs1	i
86	COc1cccc(C(=O)NC(NC(=S)Nc2ccc(Cl)cc2Cl)C(Cl)(Cl)Cl)c1 (stereo not given)	?
87	Cc1ccc(-c2noc(CSc3nc(C)cc(C)n3)n2)cc1	5%
88	Clc1ccc(OCCNCCc2ccccc2)cc1	i
89	O=C(NNC(=S)NCCc1ccccc1)c1ccc(Br)s1	0%
90	CCOc1ccccc1C(=O)Nc1cccc(C)c1	i
91	COc1ccc(C(=O)Nc2ccc(Cc3ccncc3)cc2)cc1Br	1%
92	Cc1cc(OCC(=O)OCc2ccccc2)c2c(C)c(C)c(=O)oc2c1	i
93	CC(C)C(=O)N1CCN(c2ccccc2NC(=O)c2ccc(OCc3ccccc3)cc2)CC1	i
94	O=C(Nc1nccs1)c1cccc(S(=O)(=O)N2CCCCC2)c1	1%
95	O=C(COc1cc(Cl)ccc1Cl)Oc1ccc2c3c(c(=O)oc2c1)CCC3	i
96	Cc1ccc(C(=O)Nc2ccccc2NC(=O)c2ccc(C)c(C)c2)cc1C	i

(continued)
cpd	molecule	Mtb H37Rv
97	CCOc1ccccc1N(CC(=O)NC)S(=O)(=O)c1ccccc1	i
98	Cc1ccc(OCC(=O)Nc2sc(C)c(C)c2C(N)=O)c(Br)c1	i
99	COc1ccc2c([N+](=O)[O-])c(SC#N)[nH]c2c1	43%
100	CCN1C(=O)c2ccc(C(=O)Nc3ccc(OC(F)(F)F)cc3)cc2C1=O	i
101	COc1ccc(-n2c3c(cc(C(=O)Nc4ccccc4C(N)=O)c2=O)C(=O)CC(C)(C)C3)cc1	1%
102	Cc1ccc(C2NS(=O)(=O)N=C2N)cc1 (stereo not given)	3%
103	CCc1ccc(OCC(=O)N2CCc3ccccc32)c(Br)c1	i
104	CCOc1ccc(S(=O)(=O)N(C(C)=O)c2ccc(OC(C)=O)cc2)cc1	1%
105	O=C(/C=C/c1cccc(C(F)(F)F)c1)Nc1ncc(Cc2ccccc2)s1	1%
106	O=C(NCCc1cccc(Cl)c1)C(c1ccccc1)c1ccccc1	i
107	Cc1ccc(Oc2ccc(NC(=O)C3CCC(N4C(=O)c5ccccc5C4=O)CC3)cc2)cc1 (stereo not given)	i
108	OCCN1CCN(C(=S)c2ccccc2O)CC1	0%
109	COC(=O)c1ccccc1NC(=O)c1ccc(NC(=O)c2cccs2)cc1	i
110	CC(C)C(=O)NC(=S)Nc1ccc2oc(-c3cc(F)c(F)cc3Cl)nc2c1	5%
111	CCOC(=O)CSc1nnc2n(-c3ccccc3)c(=O)c3c(n12)-c1ccccc1CC31CCCC1	i
112	COc1ccc(Cc2nnc(NC(=O)c3cc(Cl)ccc3OC)s2)cc1	i
113	COc1ccccc1-c1nc2ccc(OC(C)=O)cc2c(=O)o1	20%
114	CC1(C)C2CCC1(C)C(NC(=O)C1CC3c4ccccc4C1c1ccccc13)C2 (stereo not given)	12%
115	CC(C)(C)c1ccc(C(=O)NC(=S)Nc2ccc(F)cc2)cc1Br	2.5µg/mL*
116	O=C(NNC(=S)NCC1CCCO1)c1ccc(Br)o1 (stereo not given)	i
117	CN1CCN(c2ccc([N+](=O)[O-])cc2NC(=O)c2ccco2)CC1	i
118	O=C(CCN1CCOCC1)NCC1OCCc2ccccc21 (stereo not given)	i
119	Cc1cccc(NC(=O)NCC(F)(F)F)n1	1%
120	O=C1c2ccccc2C(=O)N1c1nc2nccc(-c3ccccc3)n2n1	i

Fetched by compound from above, 5 records:
cpd	molecule	Mtb H37Rv
117	CN1CCN(c2ccc([N+](=O)[O-])cc2NC(=O)c2ccco2)CC1	i
114	CC1(C)C2CCC1(C)C(NC(=O)C1CC3c4ccccc4C1c1ccccc13)C2 (stereo not given)	12%
110	CC(C)C(=O)NC(=S)Nc1ccc2oc(-c3cc(F)c(F)cc3Cl)nc2c1	5%
116	O=C(NNC(=S)NCC1CCCO1)c1ccc(Br)o1 (stereo not given)	i
115	CC(C)(C)c1ccc(C(=O)NC(=S)Nc2ccc(F)cc2)cc1Br	2.5µg/mL*

Additional records:
cpd	molecule	Mtb H37Rv
121	CC(C)(C)c1ccc(-c2nc3n(c(=O)c2C#N)CCS3)cc1	8%
122	CC(=O)Nc1ccc(NC(=O)c2cc(-c3ccc(Cl)cc3Cl)nc3ccccc23)cc1	12%
123	Brc1ccc2nc3c(n2c1)CCCC3	i
124	CCCN(CCC)S(=O)(=O)c1ccc(C(=O)Nc2sc3c(c2C#N)CCC3)cc1	i
125	Cc1ccc(O)c(Nc2ncnc3ccc([N+](=O)[O-])cc23)c1	i
126	CCc1sc(C(=O)Nc2cc(Cl)c(OC)cc2OC)cc1Br	i
127	CC(C)c1ccc(NS(=O)(=O)c2cccc([N+](=O)[O-])c2)cc1	i
128	Cc1cccc(OCCCC(=O)Nc2nccs2)c1C	i
129	Cc1nc(-c2ccc(NS(=O)(=O)c3ccc(Cl)cc3)cc2)cs1	i
130	CCCCOc1ccc(NC(=O)CSc2ncccn2)cc1	1%
131	Cc1cc(C(F)(F)Cl)n2nc(C)c(-c3ccccc3)c2n1	i
132	CC(C)C(=O)Nc1cccc(NC(=O)C(c2ccccc2)c2ccccc2)c1	i
133	COC(=O)Cc1ccc(NC(=O)COc2ccc(C(C)(C)C)cc2)cc1	21%
134	O=C(Nc1ccc(F)cc1F)C1CC1c1ccccc1 (stereo not given)	i
135	COCC(C)NCc1ccc(Br)cc1 (stereo not given)	i
136	O=C(CNC(=O)C1CCCCC1)NNC(=O)C(c1ccccc1)c1ccccc1	i
137	Cn1c(=O)c2cn3ncccc3c2n(C)c1=O	i
138	Cc1ccc(-c2cc(C(=O)NCc3ccc(S(N)(=O)=O)cc3)c3ccccc3n2)cc1C	i
139	COc1ccc(Br)cc1S(=O)(=O)N1c2ccccc2CC1C (stereo not given)	0%

This is a subset; the hit share may differ from the screen's.
